Screening results from PubChem BioAssay.
PABP FP inh: blocks human PABP binding to poly(A) RNA | 290,000 tested, 1% active | fluorescence polarization | AID 2014 | P11940 | inhibition, % at 35 µM;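 active = 50% or more with normal probe brightness, or confirmed in later tests; about a fifth of its hits are not listed in these tables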;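 note: calls also rest on retests at 20 µM and on dose response follow-up; controls were probe without protein and protein plus probe with vehicle; some compounds called inactive have numbers as strong as hits; many hits fall short of the cut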
Target sequence (P11940 whole entry, looked up): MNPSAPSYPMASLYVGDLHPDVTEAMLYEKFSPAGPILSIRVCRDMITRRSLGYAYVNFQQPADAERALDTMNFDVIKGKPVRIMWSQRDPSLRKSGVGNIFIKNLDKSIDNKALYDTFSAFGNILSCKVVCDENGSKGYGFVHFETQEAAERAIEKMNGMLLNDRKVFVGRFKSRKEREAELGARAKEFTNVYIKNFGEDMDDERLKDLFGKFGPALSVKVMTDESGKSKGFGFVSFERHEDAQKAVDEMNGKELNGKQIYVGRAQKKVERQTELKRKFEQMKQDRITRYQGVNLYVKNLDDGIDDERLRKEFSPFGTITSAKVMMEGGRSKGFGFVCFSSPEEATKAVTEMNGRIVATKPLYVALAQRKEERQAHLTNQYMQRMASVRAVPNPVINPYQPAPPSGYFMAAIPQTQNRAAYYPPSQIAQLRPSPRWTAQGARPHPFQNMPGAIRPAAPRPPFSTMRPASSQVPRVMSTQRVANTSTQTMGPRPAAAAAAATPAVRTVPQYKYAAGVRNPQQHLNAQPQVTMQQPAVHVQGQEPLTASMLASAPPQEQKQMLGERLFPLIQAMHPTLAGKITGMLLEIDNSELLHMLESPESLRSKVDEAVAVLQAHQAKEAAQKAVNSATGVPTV
CSC inhib: cancer stem cell inhibition; cancer stem cell-like cells viability, luminescence; inhibition, % at 7.5 µM; 300,000 tested, 1.1% active; AID 2717;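 active = mean at 75% or more and at least half the replicates too; tested in HMLE shEcad cells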;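 note: 0% = median of negative and 100% = median of positive control wells; the first replicate is given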
eIF4H FP inh: inhibitors of RNA binding by human eIF4H | 290,000 tested, 0.94% active | eIF4H fluorescence polarization binding assay | inhibition, % at 35 µM | Q15056;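 active = 50% or more with normal probe brightness, or confirmed in later tests; about a fifth of its hits are not listed in these tables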;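 note: calls also rest on retests at 20 µM and on dose response follow-up; 0% = protein and probe with vehicle and 100% = probe without protein; strong numbers were not always called active; many hits fall short of the cut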
MT1-MMP act inh: blocks activation of human MT1-MMP | P50281 | HT1080 RFP-PRO-GFP cells, GFP/RFP ratio fluorescence, overnight; percent of plate control window, DMSO zero | GFP/RFP ratio change, % at 20 µM | 360,000 tested, 0.061% active | AID 651647;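 active = GFP/RFP ratio change of at least 30% with cell ATP level not reduced by more than half and red fluorescence within 50% of control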; note: strong numbers were not always called active
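Test system: HT1080 cells expressing an RFP-PRO-GFP fluorescent reporter construct / Compound dosing: single-point 20 µM compound, 1% DMSO / Schedule: cells overnight before dosing, compound overnight, 37 °C, 5% CO2 / Evaluation: GFP/RFP fluorescence ratio / Control set: DMSO and RFP-L50D-GFP cell wells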
Rce1 inhib: inhibitors of yeast Ras-converting enzyme; yeast membranes, quenched prenylated peptide cleavage fluorescence; calls only; 290,000 tested, 0.27% active; AID 2563; Q03530;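 active = fall in fluorescence gain of 50% or more versus controls, with final raw signal at or below 3038400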;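 note: plate controls were neutral control wells for no effect and wells lacking membranes for full effect; tested at 10 µM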
Env fusion inh: HIV envelope-mediated fusion inhibition. inhibition, % at 12.3 µM. HeLa-JRFL Env/CEM21 cell fusion, luciferase. AID 651610. 360,000 tested, 1.1% active;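 active = mean replicate inhibition score of at least 50 and every replicate individually at or above 50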;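 note: 0% = plate neutral controls and 100% = maraviroc near 300 nM; one replicate is shown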
UUG fidelity: alters start codon recognition fidelity in yeast. 350,000 tested, 0.13% active. activity score, % at 18.7 µM. S. cerevisiae UUG-firefly luciferase reporter, luminescence/redox ratio;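 active = replicate mean at a twofold rise or more, about +100% in these data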;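 note: firefly luciferase made from a UUG start codon reports start codon fidelity; reporter light over untreated wells divided by growth signal over untreated wells; some hits fall short of that in this replicate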
eIF4H FP inh retest: also measured in eIF4H FP inh; calls as there; inhibition, %; compound at 20 µM; confirmation average;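 mean of two retest wells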
PABP FP inh retest: second read-out of PABP FP inh, no call of its own (marks repeat the call); inhibition, %; compound at 20 µM; confirmation repeats;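 mean of two retest wells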
MT1-MMP act inh RFP: recorded beside MT1-MMP act inh, whose call it bears; RFP signal change, %; measured here: RFP expression control read;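 0 = vehicle wells; hits needed this value within 50% of zero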
Starred values were filed as active, the others as inactive; i = inactive; . = not tested or not shown. These rows are one share of the data; count on the stated rates, not on these rows.

SMILES | PABP FP inh | CSC inhib | eIF4H FP inh | MT1-MMP act inh | MT1-MMP act inh RFP | Rce1 inhib | Env fusion inh | UUG fidelity | others
Cc1nc2ncccn2c1-c1csc(Nc2ccc(S(N)(=O)=O)cc2)n1 | 14.5 | -13.4 | 7.5 | 6.2 | 6.7 | i | 1.5 | -14.9
COc1ccc(-n2nc(C(=O)NCC(=O)NCCCN3CCC(C)CC3)c3ccccc3c2=O)cc1Cl | -9.6 | -3.4 | -5.6 | 4.6 | 2.1 | i | -38.3 | 2.4
Cc1ccc(-c2csc(Cc3nc(-c4cc5ccccc5oc4=O)cs3)n2)cc1 | -2.0 | 17.0 | -8.9 | 7.6 | -22.3 | i | . | -26.7
CCCCCCN1C[C@H](n2cc(COC(=O)c3ccccc3)nn2)[C@@H](O)C[C@@H]1c1ccccc1 | . | . | . | -5.8 | -2.8 | . | -3.2 | 1.1
COc1cc(C(=O)NCCCC2CCCC2)ccc1OC1CCN(C(C)=O)CC1 | -8.2 | . | 6.0 | 3.1 | -3.3 | i | . | 7.4
CCOc1ccc(N2CC(C(=O)Nc3cc(OCC)c(N4CCOCC4)cc3OCC)CC2=O)cc1 (stereo not given) | . | . | . | 2.8 | 0.4 | . | 15.6 | 0.7
COc1ccccc1NS(=O)(=O)c1cc(C(=O)NCCN2CCOCC2)ccc1Cl | 12.4 | 3.2 | 3.9 | -4.7 | -1.4 | i | . | -16.4
O=C(CSc1nc2ccccc2s1)NNC(=S)Nc1ccc(Br)cc1 | -7.4 | -7.3 | 2.1 | 3.7 | 6.7 | i | . | -17.9
Brc1ccc2c(c1)OCCOCCOc1cc(Br)ccc1OCCOCCOCCO2 | 5.6 | 6.3 | -5.0 | -1.7 | -18.9 | i | . | 10.8
COc1ccc(C(=O)c2cccc(C(=O)c3ccc(OC)c(C)c3)c2)cc1C | -3.3 | . | -11.1 | 3.0 | 6.3 | i | 16.6 | .
CCOC(=O)c1c(C)[nH]c(C(=O)OCC(=O)NC2(C#N)CCCCC2)c1C | . | -5.4 | . | -4.0 | -7.7 | i | 6.5 | -14.9
COc1ccc(/C=N/NC(=O)c2ccccc2O)cc1CN1CCOCC1 | -3.8 | 3.4 | 4.9 | -3.1 | 4.5 | i | -1.3 | -17.3
CC1=C(C)CC(C(=O)Nc2ccc3c(c2)OCO3)C(C(=O)O)C1 (stereo not given) | -0.2 | 4.3 | -8.9 | . | . | i | 10.4 | .
CC(=O)Nc1ccc(C(=O)Nc2cc(C(F)(F)F)ccc2-n2cnc3ccccc32)cc1 | 0.0 | -5.3 | 8.7 | 0.1 | 6.7 | i | -108.5 | .
CCOc1ccc(N(CC(=O)NCC2CCCO2)C(=O)CCC(=O)Nc2ccccn2)cc1 (stereo not given) | -5.9 | -16.7 | -5.9 | -2.9 | 6.4 | i | 6.8 | 43.7
C/C(N)=C(/C#N)C(=O)CSc1nnnn1-c1ccc(C)cc1 | 9.3 | -7.5 | 11.5 | -1.3 | -3.6 | i | -16.2 | -11.6
CCC(C)c1ccccc1N1CC(C(=O)Nc2ccc(C)c(S(=O)(=O)N3CCOCC3)c2)CC1=O (stereo not given) | . | -3.5 | . | 2.7 | -7.2 | i | 2.7 | .
O=C(c1cccc(S(=O)(=O)N2CCCC2)c1)N1CCN(c2ccccc2F)CC1 | -0.6 | -9.9 | -14.0 | -2.7 | 0.8 | i | 3.3 | -1.9
CC(C)(CNS(=O)(=O)c1ccc2c(c1)OCCO2)N1CCOCC1 | 4.1 | -6.1 | -4.6 | 1.5 | 0.7 | i | -29.1 | -8.7
CC(C)OP(=O)(OC(C)C)C1(O)C(=O)Nc2ccc(Br)cc21 (stereo not given) | -8.8 | -2.0 | -14.0 | -2.2 | 0.6 | i | . | -6.0
COc1ccc(CN(N=O)C2CC(=O)N(c3ccc(OC)cc3)C2=O)cc1 (stereo not given) | 7.2 | -7.4 | -0.7 | 1.4 | -0.5 | i | 5.4 | 6.7
Cc1ccc(CNC(=O)CC(C)S(=O)(=O)c2ccc3c(c2)NC(=O)CO3)cc1 (stereo not given) | -5.9 | -5.5 | -8.8 | -1.2 | 2.0 | i | 1.0 | -0.3
Cc1ccc(S(=O)(=O)N2CCOCC2)cc1C(=O)N1CCN(c2ccc(C(F)(F)F)cn2)CC1 | . | -15.3 | . | -0.6 | -10.8 | . | 5.6 | -16.8
C/C=C(\C)CN1CCC(n2nccc2NC(=O)CCc2ccccc2)CC1 | 59.4 | 6.3 | 25.5 | -1.1 | 2.3 | i | -14.4 | -13.6 | eIF4H FP inh retest=-1.1;PABP FP inh retest=13.4
CCN(CC)c1ccc(NS(=O)(=O)c2cn(C)c(=O)n(C)c2=O)c(C)c1 | -6.7 | 0.4 | 3.9 | 1.2 | 5.3 | i | . | -14.4
New compounds follow.
SMILES | PABP FP inh | CSC inhib | eIF4H FP inh | MT1-MMP act inh | MT1-MMP act inh RFP | Rce1 inhib | Env fusion inh | UUG fidelity | others
CN1CCN(C(CNC(=O)Nc2ccc(Cl)cc2)c2ccc(F)cc2)CC1 (stereo not given) | 8.1 | -4.0 | -2.5 | -3.5 | 1.9 | i | 4.0 | -11.2
COc1cnn(-c2cccc(C)c2)c(=O)c1Cl | 2.8 | -2.3 | 3.9 | -3.0 | 1.0 | i | 4.2 | -22.8
COc1ccccc1N/C(N)=N/c1nc(CSc2nc3ccccc3s2)cc(=O)[nH]1 | 13.1 | -10.4 | -6.8 | . | . | i | . | .
O=C(N/N=C\c1c(O)ccc2ccccc12)c1ccc(O)cc1 | 2.1 | 63.7 | 6.6 | -7.0 | -12.8 | i | 14.2 | -17.7
Nc1nc(-c2ccco2)nn1C(=O)c1ccccc1Cl | 38.8 | . | -2.7 | 4.1 | 4.1 | i | 1.8 | .
C/C(=N\NC(=O)COc1ccc(C(C)(C)C)cc1)c1ccc(-n2ccnc2)cc1 | 2.4 | 12.5 | -6.9 | -1.9 | 0.5 | i | -53.8 | -17.1
CC1CCc2sc3ncnc(N4CCN(C)CC4)c3c2C1 (stereo not given) | 3.2 | . | -7.4 | -8.7 | -8.2 | i | -1.9 | -25.3
COc1ccc(CC(=O)Nc2cc(S(=O)(=O)N3CCOCC3)ccc2N2CCOCC2)cc1 | -12.5 | 19.7 | -4.8 | -6.9 | 1.0 | . | 0.5 | .
CC1(C)CC2(CCCN(C(=S)Nc3ccccc3)C2)CCO1 (stereo not given) | 1.5 | -7.2 | -5.0 | 14.0 | 1.2 | i | 11.7 | .
C=CCSc1nc(N(CC)CC)c2sccc2n1 | 0.2 | -5.2 | -7.3 | -6.9 | -10.7 | i | . | -13.1
COc1cccc(/C=N/n2nnnc2N)c1OCC#N | . | -0.6 | . | 0.9 | -2.6 | i | 17.8 | .
c1ccc(Nc2nc(N3CCOCC3)c3ccccc3n2)cc1 | 8.5 | -3.4 | -16.3 | 4.8 | -6.1 | i | . | 3.2
COc1ccc(NC(=O)CN2CCOCC2)cc1S(=O)(=O)N1CCCCC1 | . | -4.5 | . | -1.6 | 2.3 | . | . | -12.4
Cc1cc(C)c(C(=O)/C=C/c2ccc3c(c2)OCO3)c(=O)[nH]1 | 6.6 | -3.8 | -2.5 | 2.8 | -5.0 | i | 1.5 | .
O=C(NNC(=O)c1cc(S(=O)(=O)N2CCOCC2)c(Cl)cc1Cl)c1ccccc1F | . | -15.3 | . | 1.8 | 3.5 | . | -10.9 | -5.6
O=C(OCc1nnc(-c2ccccc2)o1)c1ccc(S(=O)(=O)NCc2ccco2)cc1 | 12.7 | 8.1 | 20.9 | -2.9 | 1.3 | i | . | -9.3
Cn1ncc([N+](=O)[O-])c1C(=O)Nc1ccc(-c2ccccc2)cc1 | 1.7 | -8.9 | 2.6 | 2.5 | -2.3 | i | 23.7 | -5.2
COc1ccc(NC(=O)CN(C)C(=O)c2cc(-c3ccccc3)nc3ccccc23)cc1 | . | -12.0 | . | 3.4 | -2.0 | i | 24.5 | -19.8
O=C(CCCc1ccccc1)Nc1ccc2c(c1)OCCO2 | -9.3 | -11.2 | -0.4 | -2.3 | 3.6 | i | -78.1 | .
Cc1ccc(NC(=O)c2ccccc2-c2ccccc2C(=O)O)cc1 | -7.7 | -15.9 | -3.6 | 0.8 | 2.7 | i | -7.1 | .
CC1(C)C(=O)C2(CCCCC2)C(=O)OC1C(=O)c1ccccc1 (stereo not given) | -3.7 | 1.2 | -0.7 | -1.3 | -0.5 | i | 3.3 | .
CN(C)CCCN(C(=O)c1ccco1)c1nc(-c2ccc(Cl)cc2)cs1 | 0.9 | 1.6 | 0.4 | 0.7 | 0.4 | i | -0.3 | -9.9
COCCn1c(SCC(=O)Nc2sc(C)c(C)c2C#N)nnc1C(C)C | 3.4 | 16.5 | -0.6 | -2.9 | -6.3 | i | -15.5 | -9.8
CC1(C)SC(=S)N(/N=C/c2cccnc2)C1N(O)C(=O)Nc1ccccc1 (stereo not given) | 10.2 | -9.8 | -4.3 | 1.0 | 2.8 | i | 6.3 | .
N#CCSc1nc2c(cc1C#N)CCCCCC2 | 0.2 | -10.4 | -14.0 | 3.5 | -4.1 | . | -178.6 | -18.4
Carrying on.
SMILES | PABP FP inh | CSC inhib | eIF4H FP inh | MT1-MMP act inh | MT1-MMP act inh RFP | Rce1 inhib | Env fusion inh | UUG fidelity | others
Cc1ccc(OCc2csc(N)n2)cc1 | -4.7 | -3.1 | 0.4 | 6.7 | 2.7 | i | -17.8 | .
C/C(=C\C(=O)c1cccnc1)Nc1ccc(C)c(C)c1 | 0.3 | 4.0 | -4.2 | 0.3 | 3.4 | . | -9.4 | -22.9
CCOc1cc(-n2cnnn2)c(OCC)cc1NC(=O)c1cnccn1 | 7.2 | -19.7 | -6.3 | -1.7 | -0.2 | i | -8.6 | -16.2
Cc1n(N)c2ccccc2[n+]1CC(=O)c1ccccc1 | -7.5 | -8.3 | -3.3 | 2.5 | -5.2 | i | 5.2 | .
CCC[C@@H]1CCCO[C@@](C(=O)NCc2ccc(S(C)(=O)=O)cc2)(C(F)(F)F)C1 | . | -14.1 | . | -3.2 | -4.2 | i | 8.3 | 14.8
O=C(CCCN1C(=O)C(c2ccccc2)Oc2cccnc21)Nc1ccccc1Br (stereo not given) | . | . | . | 0.9 | 3.0 | . | 9.4 | -10.5
O=C(NC1CCCC1)C(c1cccnc1)N(C(=O)c1csnn1)c1ccccc1 (stereo not given) | 12.0 | 1.4 | -7.0 | -1.3 | 1.7 | i | -14.9 | 11.9
CCCS(=O)(=O)c1cscc1NC(=O)c1c(-c2c(F)cccc2Cl)noc1C | 7.1 | -8.2 | -5.2 | 0.5 | -2.8 | i | 18.9 | .
COc1ccc(CCNC(=O)CNCC2CCCCC2)cc1OC | 7.1 | -4.6 | 1.5 | 1.4 | 0.0 | i | 36.8 | -3.7
O=C(Nc1cc2c3c(c1)CC(=O)N3CCC2)C1CCCCC1 | . | -9.3 | . | 3.3 | 3.8 | i | 19.3 | .
Cc1ccc(S(=O)(=O)N2CCN(C(=O)c3ccco3)CC2)cc1 | -2.4 | -5.3 | 4.8 | -1.5 | -1.6 | i | 17.3 | -28.1
COc1ccccc1C(=O)Nc1ccc(S(=O)(=O)N2CCN(C)CC2)cc1 | . | -20.3 | . | 2.3 | 3.3 | i | -14.6 | -7.7
CC(C)CCOc1ccc(C2(C)NC(=O)NC2=O)cc1 (stereo not given) | 5.1 | -2.0 | -11.8 | -0.4 | -7.9 | i | 4.7 | -8.0
O=c1c2cccc3c2c(nn1CN1CCOCC1)-c1ccccc1-3 | 15.8 | 7.4 | 2.0 | -10.6 | -4.5 | i | . | -20.6
